VDR inh = vitamin D3 receptor (human) inhibition | AID 504847 | VDR-SRC2-3 peptide fluorescence polarization, 2 h | Potency, µM, without a hit: max response, negative = inhibition, most hits filed as inhibitors | P11473 | hit rate 0.93% among 400,000; active = well fitted inhibition curve with a large enough effect; inconclusive = small, poorly fitted or top-dose-only effect, or another doubt; inactive = no such curve, though single readings can be large or run the other way; note: series mostly up to about 120 µM
Target sequence (P11473 whole entry, looked up): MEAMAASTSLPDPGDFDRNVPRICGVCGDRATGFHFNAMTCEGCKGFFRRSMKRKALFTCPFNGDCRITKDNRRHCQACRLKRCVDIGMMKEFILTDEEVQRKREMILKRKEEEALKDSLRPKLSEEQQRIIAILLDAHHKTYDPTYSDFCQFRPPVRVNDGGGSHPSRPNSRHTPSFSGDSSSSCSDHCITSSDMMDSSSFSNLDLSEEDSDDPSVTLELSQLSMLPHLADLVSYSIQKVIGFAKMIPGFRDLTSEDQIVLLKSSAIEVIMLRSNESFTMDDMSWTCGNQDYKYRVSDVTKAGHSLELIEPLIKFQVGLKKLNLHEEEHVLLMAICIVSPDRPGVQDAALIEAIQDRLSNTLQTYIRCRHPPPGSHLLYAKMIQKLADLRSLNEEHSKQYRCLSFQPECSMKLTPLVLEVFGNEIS
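The screen uses fluorescence polarization to detect compounds that interfere with recruitment of the SRC2-3 coactivator peptide to VDR; plates are read after 2 h at room temperature.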
* = called active by the depositor; & = joins results of further samples. % is set by controls: 0 for no effect and ±100 for the full control effect; potency is the fitted concentration of half-maximal effect. This is a subset. The share of hits here may be higher or lower than overall.

How did Cc1ccc(S(=O)(=O)CCC(=O)Nc2nc(C(C)(C)C)cs2)cc1 do in these assays?
VDR inh: -10%

How did CN1N=C(C(F)(F)F)CC1=O do in these assays?
VDR inh: 3%

Results for CC1CCCN(Cc2nc3c(c(=O)n(C)c(=O)n3C)n2Cc2ccc(Cl)cc2Cl)C1 (stereo not drawn) ?
VDR inh: -15%

Results for Cc1nnc2c3ccccc3ccn12 ?
VDR inh: inconclusive

Results for CC(C)(C)C(C(=O)Oc1ccccc1)c1ccccc1 (stereo not drawn) ?
VDR inh: -15%

How did CCOc1ccc(CNC(=O)CCc2cn(Cc3ccccc3)c3ccccc23)cc1 do in these assays?
VDR inh: -10%

Results for CC(C)c1ccc(S(=O)(=O)N2CCC(n3c(C(F)(F)F)nc4cccnc43)CC2)cc1 ?
VDR inh: 3%

Results for CC(C)c1ccc(NC(=O)C2CCN(c3ncnc4c3nc3n4CCCCC3)CC2)cc1 ?
VDR inh: -21%

Results for O=C(Cc1ccc(Cl)cc1)NCC(=O)N1CCN(c2ccccc2)CC1 ?
VDR inh: -7%

What do the screens show for `O=c1oc(-c2ccc(O)c(O)c2)cc2cc(O)cc(O)c12`?
VDR inh: -7%

What do the screens show for `C=CCn1c(SCC(=O)N2CCCC2)nc2c([nH]c3ccccc32)c1=O`?
VDR inh: -2%

What do the screens show for `CCc1ccc2oc(C(=O)Nc3nc(-c4ccccc4)ns3)c(C)c2c1`?
VDR inh: -1%

What do the screens show for `NC1=NC2(CCCCC2)N(c2ccc(F)cc2F)C(N)=N1`?
VDR inh: -12%

What do the screens show for `COc1ccccc1NC(=S)N(Cc1ccco1)Cc1cc2ccc(C)c(C)c2[nH]c1=O`?
VDR inh: -4%

What do the screens show for `Cc1noc(C)c1COc1ccccc1C(=O)NCCc1ccc(Cl)cc1`?
VDR inh: -12%

How did COC(=O)CCc1ccc(OCC(O)CNC(C)C)cc1 (stereo not drawn) do in these assays?
VDR inh: -28%

How did CCOC(=O)C1CCN(CCCSc2ccccc2)CC1 do in these assays?
VDR inh: 3%

Results for CCN(CC(=O)NC(C)(C)C)C(=O)c1ccccc1SCC(=O)NC1CCCCCCC1 ?
VDR inh: -12%

What do the screens show for `Cc1ccc2c(c1)C(=O)[C@]1(O)CCN(c3ccccc3)C1=N2`?
VDR inh: -7%

What do the screens show for `CCc1ccccc1NC1=NCC(=O)N1Cc1ccc2c(c1)OCO2`?
VDR inh: 12%

Overlap with the part before: 3 entries; new compounds follow.
Results for CCN(CC(=O)NC(C)(C)C)C(=O)c1ccccc1SCC(=O)NC1CCCCCCC1 ?
VDR inh: -12%

What do the screens show for `Cc1ccc2c(c1)C(=O)[C@]1(O)CCN(c3ccccc3)C1=N2`?
VDR inh: -7%

What do the screens show for `CCc1ccccc1NC1=NCC(=O)N1Cc1ccc2c(c1)OCO2`?
VDR inh: 12%

How did Cc1cc(C)cc(N(CC(=O)NC(C)(C)C)C(=O)CCC(=O)Nc2nccs2)c1 do in these assays?
VDR inh: -20%

How did CCc1nnc(NC(=O)C(c2ccccc2)c2ccccc2)s1 do in these assays?
VDR inh: 0%

How did CCn1c(Cc2ccc(OC)cc2)nnc1SCC(=O)Nc1ccc(N2CCOCC2)cc1 do in these assays?
VDR inh: -3%

Results for Cc1[nH]nc2c1C(c1ccco1)C(C#N)=C(N)O2 (stereo not drawn) ?
VDR inh: 10%

Results for CCOC(=O)C(NC(C)=O)(NC(C)C)C(F)(F)F (stereo not drawn) ?
VDR inh: -8%

Results for Cc1nc2n(c(=O)c1CCN1CCC(c3noc4cc(F)ccc34)CC1)CCCC2 ?
VDR inh: 6%&4%&-13%

How did O=C(NNC(=O)c1ccncc1)NC1CCCCC1 do in these assays?
VDR inh: 1%

What do the screens show for `CCOC(=O)COc1ccc(C(=O)c2ccccc2)c(O)c1`?
VDR inh: 19%

What do the screens show for `Cc1ccc(CN2CCNC(=O)C2CC(=O)N(C)CCc2ccccc2)cc1` (stereo not drawn)?
VDR inh: -3%

How did O=C(NCCNc1nccc(C(F)(F)F)n1)c1cccs1 do in these assays?
VDR inh: -11%

How did O=C(CSc1nc2sc3c(c2c(=O)[nH]1)CCCC3)NCCO do in these assays?
VDR inh: 2%

How did Cc1ccc(C(C)C)c(OCCSc2nc3ccccc3n2CC(O)CO)c1 (stereo not drawn) do in these assays?
VDR inh: 1%

Results for COc1ccc(OCC(=O)N/N=C(\C)c2cc3ccccc3o2)cc1 ?
VDR inh: -4%

Results for O=C(COc1ccccc1)OCC(=O)c1ccc(S(=O)(=O)N2CCCCC2)cc1 ?
VDR inh: -17%

What do the screens show for `COc1ccc2[nH]cc(CCNc3ncncc3-c3ccccc3Cl)c2c1`?
VDR inh: -15%

What do the screens show for `Cc1ccc(NC(=O)N2CCN(C/C=C/c3ccccc3)CC2)cc1`?
VDR inh: 15%

How did CCCC(=O)Nc1ccc(C(=O)Nc2cccc(OC)c2)cc1 do in these assays?
VDR inh: -6%

Results for Cc1nsc(N)c1C(=O)O ?
VDR inh: 4%

How did Cc1nn(-c2ccccc2)c(C)c1/C=N/N1CCN(Cc2ccccc2)CC1 do in these assays?
VDR inh: 1%

How did COC(=O)Cc1[nH]nc2c1C(c1ccc(O)c(OC)c1)C(C#N)=C(N)O2 (stereo not drawn) do in these assays?
VDR inh: -6%

Part of the list above in order of molecular weight, rising:
Results for Cc1nsc(N)c1C(=O)O ?
VDR inh: 4%

How did CCc1nnc(NC(=O)C(c2ccccc2)c2ccccc2)s1 do in these assays?
VDR inh: 0%

How did CCn1c(Cc2ccc(OC)cc2)nnc1SCC(=O)Nc1ccc(N2CCOCC2)cc1 do in these assays?
VDR inh: -3%

The main list resumes, repeating the 7 entries before the break.
Results for O=C(COc1ccccc1)OCC(=O)c1ccc(S(=O)(=O)N2CCCCC2)cc1 ?
VDR inh: -17%

What do the screens show for `COc1ccc2[nH]cc(CCNc3ncncc3-c3ccccc3Cl)c2c1`?
VDR inh: -15%

What do the screens show for `Cc1ccc(NC(=O)N2CCN(C/C=C/c3ccccc3)CC2)cc1`?
VDR inh: 15%

How did CCCC(=O)Nc1ccc(C(=O)Nc2cccc(OC)c2)cc1 do in these assays?
VDR inh: -6%

Results for Cc1nsc(N)c1C(=O)O ?
VDR inh: 4%

How did Cc1nn(-c2ccccc2)c(C)c1/C=N/N1CCN(Cc2ccccc2)CC1 do in these assays?
VDR inh: 1%

How did COC(=O)Cc1[nH]nc2c1C(c1ccc(O)c(OC)c1)C(C#N)=C(N)O2 (stereo not drawn) do in these assays?
VDR inh: -6%

What do the screens show for `COc1ccc(S(=O)(=O)N2CCc3cc(OC)c(OC)cc3C2)cc1`?
VDR inh: 5%

How did COC(=O)c1ccc(Oc2nc(NC(C)C)nc(NC(C)C)n2)cc1 do in these assays?
VDR inh: 0%

Results for CCCCNC(=O)c1onc(CSc2cc(C)cc(C)c2)c1C(=O)O ?
VDR inh: -3%

What do the screens show for `Cc1sc(-n2c(C)cc(/C=N/n3cnnc3)c2C)c(C#N)c1C`?
VDR inh: inconclusive

How did COc1cc(C(=O)C(=O)c2ccc(O)c(OC)c2)ccc1O do in these assays?
VDR inh: 6%

How did Cc1cc(C)c(C(=O)OCc2csc(CC(=O)Nc3ccccc3C)n2)c(C)c1 do in these assays?
VDR inh: -3%

What do the screens show for `Cc1ccc(NC(=O)C2(C)Cc3ccccc3C(=O)O2)cc1` (stereo not drawn)?
VDR inh: -18%

Results for Cc1ccc(C)c(Cn2c3ccccc3c3cnn(CC(=O)NCc4ccccn4)c(=O)c32)c1 ?
VDR inh: -9%

How did Nc1ccc(-c2nc3ccccc3o2)cc1 do in these assays?
VDR inh: -3%

How did Cc1cccc(C)c1NC(=O)CNC(=O)c1ccncc1 do in these assays?
VDR inh: 6%

What do the screens show for `CCc1cc(=O)oc2cc(C)cc(OC(C)C(=O)NCc3ccncc3)c12` (stereo not drawn)?
VDR inh: 12%

How did CCCN1CCC(NC(=O)Nc2ccccc2C(=O)OC)CC1 do in these assays?
VDR inh: 3%

How did O=C(NC(=S)NNC(=O)[C@H]1C[C@@H]1c1ccccc1)c1ccc(F)cc1 do in these assays?
VDR inh: -1%

How did COc1ccc2[nH]cc(CCNc3cc(-c4cccc(C#N)c4)ncn3)c2c1 do in these assays?
VDR inh: -19%

Results for Cc1ccc(/C=N/NC(=O)c2cccc(NC(=O)c3ccccc3Cl)c2)o1 ?
VDR inh: -8%

What do the screens show for `O=S(=O)(NC1CCCCC1N1CCN(c2ccc(F)cc2)CC1)c1ccccc1` (stereo not drawn)?
VDR inh: -5%

What do the screens show for `COc1cccc([C@@H]2Oc3ccc(OC)cc3C(=O)[C@H]2OC(=O)N[C@H]2CCCc3ccccc32)c1`?
VDR inh: 4%

Results for CCOC(=O)c1cc(CC)sc1/N=C/C1=C(O)CC(C)(C)CC1=O ?
VDR inh: 3%

Results for COCCN(C(=O)c1cc(-c2ccc(F)cc2)nc2ccccc12)c1c(N)n(CC(C)C)c(=O)[nH]c1=O ?
VDR inh: 13%

What do the screens show for `COC(=O)C1=C(C)NC(C)=C([N+](=O)[O-])[C@@H]1c1ccccc1C(F)(F)F`?
VDR inh: -5%&-7%

How did CN1CCN(NC(=O)CSc2ccc(Cl)cc2Cl)CC1 do in these assays?
VDR inh: -8%

Results for N#Cc1c(C(F)(F)F)cc(C2CC2)nc1N1CCCC1 ?
VDR inh: -9%

Results for CCNC(=S)N/N=C1\CCCCc2ccccc21 ?
VDR inh: -9%

Results for CCCc1cc(=O)[nH]c(SCC(=O)Nc2sc3c(c2C#N)CCC(C)C3)n1 (stereo not drawn) ?
VDR inh: 1%

What do the screens show for `Cc1ccccc1CSc1nnc(-c2ccncc2)o1`?
VDR inh: 7%

What do the screens show for `COc1ccccc1OCc1csc(N)n1`?
VDR inh: -5%

Results for Cc1cccc(NC(=O)c2ccc(OCc3c(C)noc3C)cc2)c1 ?
VDR inh: -17%

How did CCC(=O)N1CCN(c2ccc(NC(=S)NC(=O)c3ccc(OC)c([N+](=O)[O-])c3)cc2)CC1 do in these assays?
VDR inh: -17%

What do the screens show for `Cc1ccc(S(=O)(=O)NC(=O)c2ccc(Br)o2)c(C)c1`?
VDR inh: -24%&-8%

How did Cn1nc(-c2ccc(Cl)cc2)c2cc(C(=O)NCC3CCCO3)sc21 (stereo not drawn) do in these assays?
VDR inh: -8%

How did Cc1ccc(NC(=O)c2sc3nc(C)cc(C)c3c2N)cc1 do in these assays?
VDR inh: -12%

What do the screens show for `COc1ccccc1C(=O)NC(CCSC)C(=O)NNC(=O)c1ccc(F)cc1` (stereo not drawn)?
VDR inh: 2%

What do the screens show for `CC(C)c1ccc(NC(=O)CSC2=Nc3ccccc3C3=NC(CC(=O)NC4CCCCC4)C(=O)N23)cc1` (stereo not drawn)?
VDR inh: -6%

How did CCn1cc(CN2CCC(C(=O)Nc3cccc(-c4cccc(OC)c4)c3)CC2)c(C)n1 do in these assays?
VDR inh: -10%

How did O=c1[nH]c2cc3c(cc2cc1C(c1nnnn1CC1CCCO1)N1CCCC1)OCO3 (stereo not drawn) do in these assays?
VDR inh: 6%

Results for CCSc1nc2ccc(N3C(=O)C4C5C=CC(C5)C4C3=O)cc2s1 (stereo not drawn) ?
VDR inh: -16%

How did NC(=O)Nc1ccc(Oc2c(F)c(F)c(F)c(F)c2F)cc1 do in these assays?
VDR inh: 0%

Results for O=C(CCNC(=O)c1ccc([N+](=O)[O-])cc1)NCc1cccs1 ?
VDR inh: -9%

How did Cc1ccc(NC(=O)c2ccc(S(=O)(=O)N3CC(C)CC(C)C3)cc2)cc1S(=O)(=O)N1CCOCC1 (stereo not drawn) do in these assays?
VDR inh: 10%

Results for COc1ccc(CCNC(=O)CCc2ccc(S(=O)(=O)NCC(C)C)cc2)cc1 ?
VDR inh: -7%

Results for COC(=O)C1(Cc2cc(-c3ccc(OC)cc3OC)no2)CCN(C(=O)OC(C)(C)C)CC1 ?
VDR inh: -11%

What do the screens show for `c1ccc(-c2nnc(-c3c[nH]c4ccccc34)nc2-c2ccccc2)cc1`?
VDR inh: -17%

Results for CC(C)c1ccc(S(=O)(=O)/N=C2/C=C(Sc3ncn[nH]3)C(=O)c3ccccc32)cc1 ?
VDR inh: 10µM*

Results for O=C(c1n[nH]c2ccccc12)N1CCN(S(=O)(=O)c2ccc3ccccc3c2)CC1 ?
VDR inh: 19%

What do the screens show for `COc1ccc(CN2CC(C(=O)NCC3CCCO3)CC2=O)cc1` (stereo not drawn)?
VDR inh: 4%

How did CCOc1cc(-c2ccc(OC(=O)c3ccc(Cl)cc3)c(OC)c2)cc(=O)c2c(C)oc(C)c12 do in these assays?
VDR inh: 6%

How did CC(C)Oc1ccc(N2CC(C(=O)Nc3ccc(N4CCOCC4)cc3)CC2=O)cc1 (stereo not drawn) do in these assays?
VDR inh: 27%

How did CC(=O)Nc1c([N+](=O)[O-])cc(C)c(Cl)c1[N+](=O)[O-] do in these assays?
VDR inh: 9%

How did COCCCn1c(C(C)C)nc2oc3cc(OC)ccc3c(=O)c2c1=O do in these assays?
VDR inh: -3%

What do the screens show for `CCCc1cc(=O)oc2cc(C)cc(OCC(=O)N[C@@H](CSCc3ccccc3)C(=O)O)c12`?
VDR inh: -21%

How did CN1C(=O)CC(NNC(=O)c2ccccc2)C1=O (stereo not drawn) do in these assays?
VDR inh: -8%

How did Cc1ccccc1CSCCNC(=O)CCSc1ccccc1 do in these assays?
VDR inh: 12%

What do the screens show for `CCN(CC)Cc1c(O)ccc2occ(C(=O)c3ccc(OC)cc3)c12`?
VDR inh: -8%

How did N#C/C(=C\c1ccc(N2CCCCC2)o1)C(N)=O do in these assays?
VDR inh: -1%

How did COCCCn1c(=O)c2sccc2n2c(CCCC(=O)NCc3ccccc3)nnc12 do in these assays?
VDR inh: -5%

How did Cc1ccc(NC(=O)CN(C)C(=O)c2cccc(-n3cccc3)c2)cc1 do in these assays?
VDR inh: 3%

How did O=C(CN1C(=O)NC2(CCCCCCC2)C1=O)NC(=O)NCc1ccco1 do in these assays?
VDR inh: -5%

Results for Cc1ccc(-c2nn3c(-c4ccccc4C)nnc3c3ccccc23)cc1 ?
VDR inh: -12%

Results for Cc1ccc(-c2nc(CN(C)C3CCOC3)c(C)o2)s1 (stereo not drawn) ?
VDR inh: -3%
